PMP22 txn: modulates PMP22 transcription in S16 Schwann cells. S16 Pmp22-F2sN Schwann cells (luciferase reporters placed in the Pmp22 gene), FLuc/NLuc coincidence luminescence, 24 h. Potency, µM (series often up to 57.5 µM), inactives show at the highest dose activity change, negative = inhibition, usual class: inhibitors. actives 2% (n = 43,000). AID 1508649; active = clear falling dose curves in both reporters; inconclusive = both reporters move, but less clearly or upward; inactive = either reporter flat; the % is the NLuc reporter signal; note: % is set by controls: 0 for no effect and ±100 for the full control effect; some results filed as inactive show a strong effect at the top dose
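Schwann cells carrying the coincidence reporter were exposed to library compounds for 24 h at 37C, then lysed and read for FLuc and, after quenching, NLuc luminescence on a CCD imager.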
HTT promoter inh: HTT promoter inhibition. HEK293 HTT promoter firefly luciferase reporter (activity 0% = vehicle and -100% = no light), 24 h. Potency, µM (series often up to 57.5 µM), for inactives: at the highest dose activity change, negative = inhibition, actives largely listed as inhibitors. actives 0.93% (n = 48,000). AID 1508623; active = well fitted inhibition curve with a large enough effect; inconclusive = small, poorly fitted or top-dose-only effect; inactive = no such curve, though single readings can be large or run the other way; note: nearly all actives have a fitted effect of over 50% in size
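Luminescence was read after Dual-Glo reagent and a 10 min room-temperature incubation. Values were normalized to vehicle (0% activity) and zero RLU (-100% activity). Reporter HEK293 cells had been exposed to compounds (up to 57.5 uM final) for 24 h.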
* marks the source's active call; other numbers are inactive results; ? = inconclusive; . = no result given; & = joins results of further samples; [ ] = dose if it differs, or a comment. Potency is the fitted concentration of half-maximal effect. Some of the compounds tested; the hit share may differ from the screen's.

SMILES | PMP22 txn | HTT promoter inh
Cc1cccc(C)c1NC(=O)Cn1nnc(S(=O)(=O)c2ccccc2)c1N | -10% | -9%
O=C(COc1ccc(Cl)cc1)NCCc1csc(-c2cccc(F)c2)n1 | -22% | ?
CCC(=O)N1CCc2cc(Br)cc(S(=O)(=O)N3CCCC(C(=O)Nc4ccc(CC)cc4)C3)c21 (configuration not stated) | -2% | -11%
CCOc1ccccc1CNC(=O)C1CCN(c2nnc(C)c3c(C)n(-c4ccc(C)cc4)nc23)CC1 | ? | ?
Brc1ccc2nc(-c3ccccc3)c(Nc3ccc4c(c3)OCO4)n2c1 | 1% | 1%
Cc1noc(/C=C/c2ccccc2F)c1S(=O)(=O)N1CCC(C(=O)Nc2ccc(C#N)cc2)CC1 | -14% | ?
CC1=C(C#N)C(NC(=O)c2ccccc2Cl)(C(F)(F)F)C(=O)N1 (configuration not stated) | -8% | 0%
O=C(CSc1nc(=O)[nH]c2c1CCCC2)Nc1ccccc1C(F)(F)F | -11% | -18%
Cc1ccc(NC(=O)CCc2c(C)nc3ncnn3c2C)cc1Cl | -15% | -3%
CCN(CC)CCNC(=O)c1[nH]c2ccccc2c1Sc1ccc(Cl)cc1 | ? | -26%
Cc1oc(-c2ccc(C(=O)NCc3ccccc3)cc2)nc1CS(=O)(=O)c1ccccc1 | ? | ?
Cc1cc(C)c(C)c(OCC(=O)Nc2ccc(S(=O)(=O)Nc3nc(C)cc(C)n3)cc2)c1 | -13% | 3%
O=C(NCCC1=CCCCC1)c1ccc2c(c1)N(Cc1ccccc1F)C(=O)c1ccccc1S2(=O)=O | ? | -13%
CCOC(=O)N1CCN(C(=O)c2c(C)nn(-c3cccc(C)c3)c2-n2cccc2)CC1 | -1% | -29%
COc1ccc(Cn2c(CCC(=O)Nc3ccc(C)cc3)nc3cccnc32)cc1 | 17% | -26%
COc1ccc(NC(=O)c2csc3c2CCCCC3)cc1 | -31% | 20%
COc1ccc(-c2noc(CC(=O)Nc3ccc(F)cc3F)n2)cc1 | -32% | -7%
Cc1cccc(CCNC(=O)CCc2c(C)nc3c(c(C)nn3-c3ccccc3)c2C)c1 | -6% | ?
COc1ccc(CNC(=O)Cn2cccc2C(=O)c2ccccc2C)cc1 | 26% | 25%
Cc1ccc2[nH]c3c(=O)n(CC(=O)N4CCCCC4)ncc3c2c1 | 11% | 12%
Cc1cc(F)ccc1NC(=O)CCS(=O)(=O)c1cccc2nsnc12 | ? | -4%
CCOc1ccc(C(=O)NCCc2sc3nc(-c4ccc(Cl)cc4)nn3c2C)cc1OCC | 7% | -9%
CCOC(=O)Cn1nc(N2CCN(c3ccc(F)cc3)CC2)ccc1=O | -16% | -12%
COc1cc(NC(=O)NCCc2c(C)nn(C)c2C)cc(OC)c1OC | 2% | -16%
CC1CN(C(=O)N2CCC(C(=O)NC3CCCCCC3)CC2)c2ccccc2O1 (configuration not stated) | -2% | ?
COc1ccc(CCNC(=O)c2cc(=O)c3cc(C)c(C)cc3o2)cc1OC | ? | -23%
Cc1cccc(N2CCN(C(=O)CS(=O)(=O)c3cccc4nsnc34)CC2)c1C | -41% | -7%
Cc1ccc(NC(=O)CSc2nc3ccc(NC(=O)c4cccc(Cl)c4)cc3s2)c(C)c1 | ? | -8%
COc1ccc(C(=O)CCC(=O)Nc2ccccc2C)cc1 | 29% | 7%
COc1ccc(NS(=O)(=O)c2ccc(NC(=O)N3CCCC3)cc2)cc1 | -34% | ?
O=C(NCCc1ccc(Cl)cc1)c1c2c(nc3ccccc13)C(=O)N(C1CCCCC1)C2 | ? | ?
O=C1C(O)=C(O)C(=O)C(O)=C1O | . | -19%
Cc1cccc(CNC(=O)c2cccc(NC(=O)N3CCSc4ncccc43)c2)c1 | -2% | -25%
Cc1cccc(N(CC(=O)NC(C)c2ccccc2)S(=O)(=O)c2ccccc2)c1C (configuration not stated) | 6% | ?
CCC(=O)N1CCc2cc(Br)cc(S(=O)(=O)N3CCN(c4ccccc4)CC3)c21 | -6% | 6%
Cc1ccc2nc(Cl)c3cc(C(=O)NC4CCCCC4)sc3c2c1 | -11% | -2%
Cc1cccc(NC(=O)c2c(NC(=O)c3ccccc3)sc3c2CCCC3)c1 | -1% | -1%
CN(C)CCN(C(=O)c1ccco1)c1nc2c(F)cc(F)cc2s1 | -17% | 16%
C=CC[C@@H]1C=C(C)C[C@H](C)C[C@H](OC)[C@H]2O[C@@](O)(C(=O)C(=O)N3CCCC[C@H]3C(=O)O[C@H](C(C)=C[C@@H]3CC[C@H](O)[C@H](OC)C3)[C@@H](C)[C@@H](O)CC1=O)[C@@H](C)C[C@@H]2OC | . | ?
CCC(=O)N1CCc2cc(S(=O)(=O)CCC(=O)N3CCN(c4ccc(C(C)=O)cc4)CC3)ccc21 | ? | -20%
CCOCC(O)COc1ccc(NC(=O)CC[S+](C)C)cc1 (configuration not stated) | . | 4%&14%
COc1ccccc1OCC(=O)Nc1c(C(=O)c2ccc(F)cc2)oc2ccccc12 | -9% | -9%
CC(=O)Nc1c(C)nn(-c2ccccc2)c1N1CCC(C(=O)Nc2ccc(F)cc2Cl)CC1 | 0% | 10%
CCCCNC(=O)CCCN1C(=O)CCn2nc(-c3cccn3C)cc21 | ? | -23%
Cc1ccc(Cn2c(CCNC(=O)C(C)C)nc3ccccc32)cc1 | 8% | 21%
CCc1ccccc1S(=O)(=O)Cc1ccc(C(=O)NCc2ccc(Cl)cc2)o1 | ? | ?
CC1CCCCN1C(=O)CSc1nnc(-c2cccc(Cl)c2)o1 (configuration not stated) | -9% | 50%[activator]
Oc1ccc(/C=C/c2nc(-c3ccccc3O)n(-c3ccccc3)n2)c(O)c1 | -26% | -28%
Oc1c(C(c2ccc(Cl)cc2)N2CCC3(CC2)OCCO3)sc2nc(-c3ccco3)nn12 (configuration not stated) | ? | 10%
COc1ccccc1NC(=O)CN(c1ccc(C(C)C)cc1)S(=O)(=O)c1c(C)noc1C | ? | -24%
CCOC(=O)c1sc(NC(=O)/C=C/c2ccc(C(C)C)cc2)c(C(=O)OCC)c1C | -31% | 1%
Cc1ccc(NC(=O)c2ccc(C)c(S(=O)(=O)N3CCCCCC3)c2)cc1 | ? | ?
Cc1ccc(Cn2ccnc2SCC(=O)NCc2ccc(F)cc2)cc1 | ? | -24%
COc1ccccc1CNC(=O)c1ccc(CS(=O)(=O)c2ccccc2C)o1 | -22% | -13%
Cc1ccc(Cc2nc3ccccc3nc2SCC(=O)Nc2cccc(C(F)(F)F)c2)cc1 | ? | -28%
COc1ccc(N2CCN(C(=O)CCS(=O)(=O)c3cc4c(cc3Cl)NC(=O)CO4)CC2)cc1 | -15% | -23%
O=C(C1CCCN(S(=O)(=O)c2ccc(Br)s2)C1)N1CCN(c2ccc(F)cc2)CC1 (configuration not stated) | ? | -7%
CCn1c2c(c(=O)n3ncc(C(=O)Nc4cc(Cl)ccc4C)c13)CN(Cc1ccc(OC)cc1)CC2 | ? | ?
COC(=O)c1sc(N2C(=O)c3oc4ccc(C)cc4c(=O)c3C2c2ccc(OC)cc2)nc1C (configuration not stated) | -7% | -10%
COC(=O)c1c(C)sc(-c2c(-c3cccc(Cl)c3)[nH]c3c2c(=O)[nH]c(=O)n3C)c1O | -11% | -5%
Further compounds
SMILES | PMP22 txn | HTT promoter inh
Cc1cc(NC(=O)C2CCN(S(=O)(=O)c3ccc(Br)s3)CC2)ccc1Br | 8% | -3%
CCc1ccc(NC(=O)c2ccc3c(c2)nnn3CC)cc1 | -3% | 0%
Cc1ccccc1-c1noc(-c2ccc(NCC3CCCO3)c([N+](=O)[O-])c2)n1 (configuration not stated) | ? | 17%
O=C(NCc1ccc(F)cc1)C1CCN(C(=O)c2cnn(-c3ccccc3)c2-n2cccc2)CC1 | -27% | ?
Cc1ccc(-c2ccc(=O)n(CC(=O)Nc3ccc(F)c(Cl)c3)n2)cc1C | 0% | -10%
Cc1ccc(NS(=O)(=O)c2cc(-c3cnc(C4CC4)o3)ccc2C)cc1Cl | ? | ?
COCCn1c(C)cc(O)c(C(c2ccccc2)N2CCN(C)CC2)c1=O (configuration not stated) | -2% | -14%
Cc1ccc(OCC(=O)NCC2(N3CCN(C)CC3)CCCCC2)cc1C | ? | -8%
Cc1ccc(NCc2nnc3n2CCCCC3)cc1Cl | 2% | 11%
CC(=O)c1ccc(N2CCN(C(=O)Nc3cccc(F)c3)CC2)cc1 | -11% | -13%
CCN(CC)CCOC(=O)c1ccc(NC(=O)c2cc3c(s2)-c2ccccc2OC3)cc1 | ? | -9%
COc1ccccc1CNS(=O)(=O)c1ccc2c(c1)CC(C)N2C(=O)C1CCC1 (configuration not stated) | ? | ?
COc1cccc(NC(=O)C(=O)NCC(c2ccc3c(c2)OCO3)N2CCN(C)CC2)c1 (configuration not stated) | -30% | 88%[activator]
CCOC(=O)c1cc(-c2ccccc2)n(-c2cccc(C(=O)Nc3cccc(C(C)=O)c3)c2)c1C | -6% | ?
COc1ccc(-c2noc(COc3ccc(C)cc3C)n2)cc1OC | 25% | -24%
CCN(C(=O)C1CCCN(c2ncnc3c2nc2n3CCCCC2)C1)c1cccc(Cl)c1 (configuration not stated) | ? | ?
COc1ccc(Cn2ccn(CC(=O)Nc3cc(C)ccc3C)c(=O)c2=O)cc1 | 3% | -13%
COc1ccc(C(=O)NCC(c2ccc(Cl)cc2)N2CCCCC2)cc1 (configuration not stated) | 9% | -15%
COc1ccc(CNc2nc(SCc3ccc(Cl)cc3)nc3ccccc23)cc1 | -31% | 9%
Cc1cc(C)cc(-n2ccn(Cc3ccccc3C)c(=O)c2=O)c1 | -24% | ?
CC1=C(C(N)=O)C(c2ccc(C(C)C)cc2)n2nc(SCc3ccccc3)nc2N1 (configuration not stated) | -18% | -7%
CCCCNC(=O)c1cnc2c(-c3ccc(OCC)c(OCC)c3)c(C)nn2c1-c1ccccc1 | -24% | ?
COc1ccc(Nc2ncc3c(n2)CCN(C(=O)OC(C)(C)C)C3)cc1 | ? | ?
Cc1cccc(C)c1NC(=O)CSc1nc2ccccc2c2nc(CCc3c(C)n[nH]c3C)nn12 | 2% | -4%
Cc1ccc(NC(=O)Nc2cccc(C)n2)cc1 | ? | 49%[activator]
COc1cccc2sc(N3CCN(C(=O)CCS(=O)(=O)c4ccc(F)cc4)CC3)nc12 | ? | 22µM*
CCOC(=O)c1c(C)oc2nc(C)nc(N(CC(C)C)CC(C)C)c12 | ? | ?
Cc1nn(C)c2c1c(C(F)(F)F)cc(=O)n2CC(=O)N1CCCCC1 | -6% | 9%
Fc1ccc(Nc2c3c(nc4ccccc24)CCC3)cc1 | 14µM* | ?
COc1ccc(Nc2ncnc3onc(C)c23)cc1Cl | -1% | -20%

14 entries from above, with two lines to a compound:
Below each SMILES – PMP22 txn, HTT promoter inh
- CCN(C(=O)C1CCCN(c2ncnc3c2nc2n3CCCCC2)C1)c1cccc(Cl)c1 (configuration not stated)
    ?, ?
- COc1ccc(Cn2ccn(CC(=O)Nc3cc(C)ccc3C)c(=O)c2=O)cc1
    3%, -13%
- COc1ccc(C(=O)NCC(c2ccc(Cl)cc2)N2CCCCC2)cc1 (configuration not stated)
    9%, -15%
- COc1ccc(CNc2nc(SCc3ccc(Cl)cc3)nc3ccccc23)cc1
    -31%, 9%
- Cc1cc(C)cc(-n2ccn(Cc3ccccc3C)c(=O)c2=O)c1
    -24%, ?
- CC1=C(C(N)=O)C(c2ccc(C(C)C)cc2)n2nc(SCc3ccccc3)nc2N1 (configuration not stated)
    -18%, -7%
- CCCCNC(=O)c1cnc2c(-c3ccc(OCC)c(OCC)c3)c(C)nn2c1-c1ccccc1
    -24%, ?
- COc1ccc(Nc2ncc3c(n2)CCN(C(=O)OC(C)(C)C)C3)cc1
    ?, ?
- Cc1cccc(C)c1NC(=O)CSc1nc2ccccc2c2nc(CCc3c(C)n[nH]c3C)nn12
    2%, -4%
- Cc1ccc(NC(=O)Nc2cccc(C)n2)cc1
    ?, 49%[activator]
- COc1cccc2sc(N3CCN(C(=O)CCS(=O)(=O)c4ccc(F)cc4)CC3)nc12
    ?, 22µM*
- CCOC(=O)c1c(C)oc2nc(C)nc(N(CC(C)C)CC(C)C)c12
    ?, ?
- Cc1nn(C)c2c1c(C(F)(F)F)cc(=O)n2CC(=O)N1CCCCC1
    -6%, 9%
- Fc1ccc(Nc2c3c(nc4ccccc24)CCC3)cc1
    14µM*, ?

(list continues)
SMILES | PMP22 txn | HTT promoter inh
CC(=O)OCc1cnc(C)c2oc(=O)c(C(=O)Nc3ccc(F)cc3C)cc12 | -25% | -6%
COc1ccc(Br)cc1CNC(=O)CN1C(=O)CSc2ccc(S(=O)(=O)N3CCOCC3)cc21 | ? | -11%
O=C(Cn1cc(C(=O)c2ccccc2)c(=O)c2cc3c(cc21)OCCO3)Nc1ccc(F)c(F)c1 | ? | -34%
Cc1cc(C)cc(NC(=O)Cc2csc(C)n2)c1 | -2% | -11%
O=C(NCc1ccccc1)C(=O)Nc1c2c(nn1-c1ccc(F)cc1)CSC2 | ? | -23%
COc1ccc(-c2noc(-c3ccccc3OCC(=O)Nc3ccc(C(C)=O)cc3)n2)cc1 | 3% | 10%
Cc1cccc(C(=O)Nc2sc3c(c2C(=O)N2CCCCC2)CCC(C)C3)c1 (configuration not stated) | ? | ?
CCCCc1nn2c(C)c(-c3ccc(OCC)cc3)nc2s1 | ? | -15%

Part of the list above in a different format:
Under each structure – PMP22 txn	HTT promoter inh
- Cc1cc(C)cc(NC(=O)Cc2csc(C)n2)c1
→ -2%	-11%
- O=C(NCc1ccccc1)C(=O)Nc1c2c(nn1-c1ccc(F)cc1)CSC2
→ ?	-23%
